Compound activity as filed in PubChem.
Six1-Eya2 blk – blocks human Six1 binding to Eya2 | Q15475+O00167 | AlphaScreen GST-Six1/His-Eya2 binding, biochemical; active compounds read low; control for the full effect not named in the record | activity change, % (no concentration beside the values) | hit rate 0.56% among 360,000 | AID 651725; in the data active = activity change below about -65%; inconclusive = about -30% to -65%; inactive = above about -30%; further: on the % scale 0 is the no-effect control and ±100 the full control effect
Target sequence (O00167 whole entry, looked up): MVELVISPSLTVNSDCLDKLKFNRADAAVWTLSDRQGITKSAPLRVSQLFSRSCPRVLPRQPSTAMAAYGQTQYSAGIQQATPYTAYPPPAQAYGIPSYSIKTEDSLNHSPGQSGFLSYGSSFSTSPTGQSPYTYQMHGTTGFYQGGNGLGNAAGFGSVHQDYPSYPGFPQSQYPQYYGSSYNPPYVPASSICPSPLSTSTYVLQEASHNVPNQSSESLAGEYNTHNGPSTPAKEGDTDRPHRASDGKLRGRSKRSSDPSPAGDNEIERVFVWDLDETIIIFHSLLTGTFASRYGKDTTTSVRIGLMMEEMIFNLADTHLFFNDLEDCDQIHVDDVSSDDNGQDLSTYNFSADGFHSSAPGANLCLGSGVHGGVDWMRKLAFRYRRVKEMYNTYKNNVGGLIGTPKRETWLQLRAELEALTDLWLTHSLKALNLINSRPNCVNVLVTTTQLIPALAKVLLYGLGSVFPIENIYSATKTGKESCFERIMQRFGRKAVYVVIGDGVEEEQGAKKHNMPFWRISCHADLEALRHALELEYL
Target sequence (Q15475 whole entry, looked up): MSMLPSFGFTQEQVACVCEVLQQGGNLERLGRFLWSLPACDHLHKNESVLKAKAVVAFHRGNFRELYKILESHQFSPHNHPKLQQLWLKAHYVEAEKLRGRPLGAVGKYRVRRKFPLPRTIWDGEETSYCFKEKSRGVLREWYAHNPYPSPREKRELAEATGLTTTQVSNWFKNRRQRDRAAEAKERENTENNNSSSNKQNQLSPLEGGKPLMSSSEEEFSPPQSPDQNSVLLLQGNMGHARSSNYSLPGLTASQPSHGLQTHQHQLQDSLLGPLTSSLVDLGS
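Compounds are tested against tagged Six1 and Eya2 proteins bridged by glutathione donor and nickel acceptor beads; after a one-hour incubation at 37 °C without light, AlphaScreen emission is recorded.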
CtBP-E1A inh – inhibitors of CtBP/E1A interaction; AlphaScreen GST-E1A/His-CtBP binding, 1536-well; active compounds read low; control for the full effect not named in the record; activity change, % (concentration not given with the values); hit rate 0.49% among 340,000; in the data active means activity change below about -65%; inconclusive means about -30% to -65%; inactive means above about -30%; further: on the % scale 0 is the no-effect control and ±100 the full control effect
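Homogeneous bead-based format: GST-tagged E1A captured on glutathione donor beads, His-tagged CtBP on nickel acceptor beads; compounds precede bead addition by 2 h at 37 °C.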
D2 PAM – human D2 receptor positive allosteric modulation; DiscoveRx D2 beta-arrestin cells, luminescence, 90 min; 100% = 57 uM dopamine signal; potentiation, % (no concentration beside the values); hit rate 0.23% among 360,000; active = potentiation of 50% or more; inconclusive = 30% to 50%; inactive = 30% or less;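 further: compound concentration not given in the record; tested on top of an EC20 dose of dopamine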
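PathHunter beta-arrestin assay in DiscoveRx D2 cells. Compounds were added with an EC20 of dopamine (50 nM final) for 90 min at 37 deg C. Luminescence was read 1 h after detection reagent, with 57 uM dopamine as the EC100 control.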
TRPML1 blocker – blocks the human TRPML1 channel. Q9GZU1. TRPML1-inducible cells, Ca2+ dye fluorescence, FDSS; active compounds read low; inhibition of EC80 agonist-evoked calcium signal. activity change, negative = inhibition, % (test concentration not listed). hit rate 0.02% among 390,000; in the data active means activity change below about -50%; inconclusive means about -30% to -50%; inactive means above about -30%;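 further: stimulus is agonist 54-4 at its EC80 concentration; on the % scale 0 is the no-effect control and ±100 the full control effect; compound concentration not given in the record; the text of the record puts the active cut at -80%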
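Tet-induced TRPML1-DL cells loaded with Ca8 no-wash calcium dye were read kinetically on FDSS. Compound addition was followed by EC80 agonist 54-4 (4 uM final); inhibition was read over 110 s.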
TRPML1 ag – human mucolipin-1 channel agonism. Q9GZU1. TRPML1-expressing cells, Ca2+ dye fluorescence, FDSS; host cell line not named in the record; reference of the full effect not given here. activation, % (no concentration beside the values). hit rate 0.12% among 410,000; in the data active = activation above about 50%; inconclusive = about 30% to 50%; inactive = below about 30%; further: 0% is about no effect; the text of the record puts the active cut at 80%
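Kinetic FDSS Ca2+ read in Tet-induced TRPML1-DL cells (ABD Ca8 dye plus quencher, 45-90 min RT loading): baseline, then compound, then 110 s agonist window; EC80 agonist 54-4 at 4uM final added afterwards for a 110 s antagonist window.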
TRPV1 potentiator – human TRPV1 potentiation; Q8NER1; potentiation, % at 8.33 µM; hit rate 0.02% among 320,000; TRPV1-expressing cells, Fluo-8 calcium influx, capsaicin EC20 potentiation; host cell line not named in the record; control for the full effect not named in the record; active means potentiation above 80%; inconclusive means 30% to 80%; inactive means below 30%; further: 0% is about no effect
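Fluo-8 calcium influx in TRPV1-expressing cells, kinetic read (ex 480/em 520 nm). Compound added and read 3 min for agonist activity, followed by capsaicin at EC20 final and 2 min further read for enhancement.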
Active calls of the source: *; ? = inconclusive; · = not tested or not shown. An excerpt; the hit share may differ from the screen's.

| SMILES | Six1-Eya2 blk | CtBP-E1A inh | D2 PAM | TRPML1 blocker | TRPML1 ag | TRPV1 potentiator |
| --- | --- | --- | --- | --- | --- | --- |
| CC(N)Cc1c[nH]c2cc3c(cc12)OCCO3 (stereo not drawn) | -8 | -4 | -10 | -15 | -0.3 | 7 |
| Cc1cc(C(=O)OCC(=O)Nc2ccc(F)cc2)c(C)n1C1CC1 | -8 | -1 | -13 | 3 | 1.3 | 29 |
| CC(=O)NC(Cc1ccc(N(CCCl)CCCl)cc1)C(=O)O (stereo not drawn) | 10 | 4 | 2 | -11 | 0.2 | 5 |
| c1ccc2c(c1)[nH]c1cnccc12 | -2 | 7 | -4 | -8 | -0.8 | 4 |
| COC(=O)C1=C(c2ccc(F)cc2OCc2ccccc2)C[C@@H]2CC[C@H]1N2C(=O)N1CCCCC1 | 4 | -26 | -7 | 14 | 0.7 | -18 |
| COc1ccc(CN2C(=O)NC(=O)/C(=C/c3cc(OC)c(OC)c(OC)c3)C2=O)cc1 | 3 | 8 | -3 | 28 | 1.3 | 1 |
| COC(=O)C1=C(c2ccc(F)cc2OCc2ccccc2)C[C@@H]2CC[C@H]1N2C(=O)NCCN1CCOCC1 | 0 | -25 | -23 | -1 | -0.2 | -3 |
| COc1ccc(OC)c(-n2c(O)c(C=Nc3c(C)n(C)n(-c4ccccc4)c3=O)c(=O)[nH]c2=O)c1 | -2 | · | 3 | 19 | -0.7 | -9 |
| O=C(Cc1ccc(Cl)cc1)NCCN1CCN(C(=O)Cc2ccc(Cl)cc2)CC1 | -2 | -2 | -12 | 26 | 0.0 | 5 |
| Cc1ccc(C2N(c3ccccn3)C(=O)C3CCCN32)o1 (stereo not drawn) | 2 | 2 | -1 | -12 | 1.7 | -1 |
| O=[N+]([O-])c1ccc(OP(=O)(O)Oc2ccc([N+](=O)[O-])cc2)cc1 | 2 | 1 | -11 | 1 | 1.9 | · |
| C[C@]12CC[C@@H](O)CC1=CCC1C2CC[C@]2(C)C(=O)[C@H](F)CC12 (stereo partly drawn) | 17 | 9 | -6 | 44 | -0.3 | · |
| CCOC(=O)c1nsnc1NCCCl | 17 | -14 | -31 | -5 | 0.4 | 0 |
| Cc1cc(NC(=O)CCl)nn1C | 8 | -13 | -2 | 0 | 0.2 | -3 |
| CN(C)N=O | -2 | 9 | -14 | -4 | -0.1 | 1 |
| Cc1ccc(CN2CCN(C)CC2)c(C)c1 | 4 | 1 | -23 | -11 | -0.4 | 4 |
| O=C(Nc1ccc(F)cc1)OC1CN2CCC1CC2 (stereo not drawn) | -1 | 3 | -11 | 14 | 0.0 | 10 |
| COc1ccc(-n2c(/C=C/c3ccc4c(c3)OCO4)nc3ccccc3c2=O)cc1 | 13 | 6 | -15 | 2 | -0.1 | 3 |
| CN1CCN(C(=O)O[C@H]2c3nccnc3C(=O)N2c2ccc(Cl)cn2)CC1 | -7 | 11 | -4 | -2 | 0.9 | 1 |
| O=c1[nH]c(O)c(C=Nc2ccccc2Sc2ccccc2)c(=O)[nH]1 | 8 | 8 | -1 | 13 | 3.1 | 3 |

Filtered by structure: the compounds so far with fluorine.
| SMILES | Six1-Eya2 blk | CtBP-E1A inh | D2 PAM | TRPML1 blocker | TRPML1 ag | TRPV1 potentiator |
| --- | --- | --- | --- | --- | --- | --- |
| Cc1cc(C(=O)OCC(=O)Nc2ccc(F)cc2)c(C)n1C1CC1 | -8 | -1 | -13 | 3 | 1.3 | 29 |
| COC(=O)C1=C(c2ccc(F)cc2OCc2ccccc2)C[C@@H]2CC[C@H]1N2C(=O)N1CCCCC1 | 4 | -26 | -7 | 14 | 0.7 | -18 |
| COC(=O)C1=C(c2ccc(F)cc2OCc2ccccc2)C[C@@H]2CC[C@H]1N2C(=O)NCCN1CCOCC1 | 0 | -25 | -23 | -1 | -0.2 | -3 |
| C[C@]12CC[C@@H](O)CC1=CCC1C2CC[C@]2(C)C(=O)[C@H](F)CC12 (stereo partly drawn) | 17 | 9 | -6 | 44 | -0.3 | · |
| O=C(Nc1ccc(F)cc1)OC1CN2CCC1CC2 (stereo not drawn) | -1 | 3 | -11 | 14 | 0.0 | 10 |

(list continues)
| SMILES | Six1-Eya2 blk | CtBP-E1A inh | D2 PAM | TRPML1 blocker | TRPML1 ag | TRPV1 potentiator |
| --- | --- | --- | --- | --- | --- | --- |
| CCOC(=O)C1CCN(/C=C2/C(=O)NC(=S)N(c3ccccc3F)C2=O)CC1 | -2 | · | -3 | 2 | -0.2 | -13 |
| C=Cn1c(P(=S)(N2CCOCC2)N2CCOCC2)cc2c1CCCC2 | -5 | -7 | -4 | -4 | 68* | -14 |
| CC(C)c1ccc(NC(=O)N2C[C@H]3C[C@@H](C2)c2cccc(=O)n2C3)cc1 | 4 | -15 | -20 | · | · | 1 |
| COc1ccccc1N1CCN(C2CCCN(C(=O)COc3ccccc3Cl)C2)CC1 (stereo not drawn) | -17 | -4 | -15 | 3 | -0.2 | -11 |
| c1ccc(CNCCc2ccc3c(c2)OCO3)nc1 | -30 | 8 | -12 | -14 | -0.3 | 26 |
| Cc1ccc(-c2nc3ccccc3c(=O)n2-c2cccc(C)n2)cc1 | 0 | -20 | -5 | 0 | -0.7 | -1 |
| CCOc1nc(NC(C)C)nc(N2CC3CC(C2)c2cccc(=O)n2C3)n1 (stereo not drawn) | 6 | · | -6 | -3 | 0.3 | 0 |
| CCOC(=O)C1(CCCc2ccccc2)CCN(C2CCCC2)CC1 | -3 | -16 | -18 | -9 | -0.5 | 9 |
| CCN(CC)S(=O)(=O)c1ccc(C(=O)NC2CN3CCC2CC3)cc1 (stereo not drawn) | 7 | 8 | 3 | 0 | 2.4 | 2 |
| Ic1ccccc1CN[C@@H]1C2CCN(CC2)[C@@H]1C(c1ccccc1)c1ccccc1 | -8 | -6 | -6 | 63 | 1.9 | 15 |
| O=[N+]([O-])c1ccc(C2C3C(c4ccccc4)=NC4(CCCC4)N32)cc1 (stereo not drawn) | -3 | 0 | -6 | 53 | 2.2 | -17 |
| CN1CC(C(=O)c2cccs2)C(c2ccc(Cl)cc2)C1 (stereo not drawn) | -3 | -7 | -23 | -4 | 0.5 | 17 |
| O=C1NC(=O)C(CCc2ccncc2)(CCc2ccncc2)C(=O)N1C1CCCCC1 | -4 | 9 | -6 | -8 | 0.8 | -3 |
| CCC1CN1P(=S)(N1CC1CC)N1CC1CC (stereo not drawn) | 3 | -3 | -7 | -9 | -0.1 | · |
| N=c1c[n+](CC23CC4CC(CC(C4)C2)C3)[n-]o1 | 9 | -4 | -5 | -23 | 0.8 | -2 |
| Cc1ccc2c(c1)c(=O)c1c3n2CCN(CC#N)C3CC1 (stereo not drawn) | -1 | -3 | -4 | -9 | -0.6 | -7 |
| COc1cc(C(=O)N2Cc3ccc(Br)cc3-n3nncc3C2)cc(OC)c1OC | 4 | 7 | 3 | · | -0.4 | · |
| O=C(c1ccc(Cl)cc1)C1CCCN(Cc2ccon2)C1 (stereo not drawn) | -1 | · | -10 | -18 | 0.6 | 6 |
| Oc1c(Br)cc(Br)cc1CN1CCN(Cc2ccccc2)CC1 | ? | -26 | -34 | 2 | 2.8 | 11 |
| COC(=O)CC1=C(C(=O)OC)C2(C(=O)Nc3c(C)cccc32)C(C#N)=C(N)O1 (stereo not drawn) | -1 | 2 | 70* | -4 | 0.2 | -10 |

Next section.
| SMILES | Six1-Eya2 blk | CtBP-E1A inh | D2 PAM | TRPML1 blocker | TRPML1 ag | TRPV1 potentiator |
| --- | --- | --- | --- | --- | --- | --- |
| O=[N+]([O-])NC1=NCCN1Cc1ccc(Cl)nc1 | 4 | 2 | -9 | 5 | -0.2 | ? |
| O=C(O)c1ccc(Cl)nc1 | 11 | 8 | -3 | 14 | 2.7 | -3 |
| Cc1cc2c(s1)NC(=O)CN=C2c1cccs1 | -4 | 3 | -7 | -1 | -1.4 | 3 |
| CN1CCc2nc3ccc(F)cc3c(C(N)=O)c2C1 | 11 | 2 | -14 | 8 | 0.4 | 2 |
| Cc1nn(Cc2ccccc2)c(C)c1C(=O)OCC(=O)NCc1ccco1 | -6 | 1 | -11 | -4 | -0.2 | -9 |
| O=C(Nc1ccc(OC(=O)N2CCCC2)cc1)N1CCOCC1 | 5 | 8 | -5 | 6 | -0.4 | -5 |
| O=[N+]([O-])c1cccc(CN2CCN(Cc3ccc(Cl)cc3)CC2)c1 | -24 | -10 | -21 | 21 | 2.0 | 4 |
| CC(O)CNc1ccc([N+](=O)[O-])c2cccnc12 (stereo not drawn) | -6 | -3 | -15 | -11 | -0.6 | 4 |
| CC(C)(C)c1nc(N2CCN(C(=O)c3ccco3)CC2)c2nnn(Cc3ccccc3Cl)c2n1 | -27 | -13 | -22 | 9 | 0.0 | -3 |
| C=CCn1c(O)c(C(C)=NCCN2CCN(C(=S)NC)CC2)c(=O)[nH]c1=O | -19 | -11 | -15 | -14 | 0.2 | -2 |
| CN1CCN(Cc2cn(C)c3ccccc23)CC1CCO (stereo not drawn) | 3 | -13 | -8 | -5 | 0.3 | 0 |
| Cc1cccc(NC(=O)[C@@H](NC(=O)N2C[C@H]3C[C@@H](C2)c2cccc(=O)n2C3)C(C)C)c1 | 10 | 4 | -29 | · | · | 5 |
| COc1ccc(-n2c(O)c(C(C)=NCc3ccc4c(c3)OCO4)c(=O)[nH]c2=O)cc1 | 1 | 2 | 6 | -3 | -0.6 | 29 |
| Nc1nnc(P(c2ccccc2)c2ccccc2)s1 | -3 | · | -8 | 17 | 0.9 | 5 |
| O=C1NC(=O)C(=Cc2csc3ccccc23)C(=O)N1 | -13 | · | -22 | -5 | -0.6 | -16 |
| OC(CN1CCCCC1)c1c[nH]c2ccccc12 (stereo not drawn) | -16 | -17 | -10 | -12 | 1.4 | 2 |
| CN1C(=O)C(Cc2cccs2)C(=O)N(C)C1=O | 2 | 11 | 0 | 1 | 0.4 | 15 |
| C=CCn1c(O)c(C(CC)=NCc2cc(OC)cc(OC)c2)c(=O)[nH]c1=O | -1 | -3 | 11 | 0 | 3.5 | 11 |
| Cc1nccc2c1[nH]c1ccc(Br)cc12 | -7 | 1 | -36 | · | · | 5 |
| CCC(=NCCc1ccccc1)c1c(O)n(C2CCCCC2)c(=O)[nH]c1=O | -1 | 3 | -12 | 3 | 19 | 1 |
| CCC(=NCCCN(CC)CC)c1c(O)n(-c2ccccc2)c(=O)[nH]c1=O | 6 | 14 | -9 | 3 | -0.4 | -7 |

Four entries from above, sorted by molecular weight, low to high.
| SMILES | Six1-Eya2 blk | CtBP-E1A inh | D2 PAM | TRPML1 blocker | TRPML1 ag | TRPV1 potentiator |
| --- | --- | --- | --- | --- | --- | --- |
| CN1C(=O)C(Cc2cccs2)C(=O)N(C)C1=O | 2 | 11 | 0 | 1 | 0.4 | 15 |
| Cc1cc2c(s1)NC(=O)CN=C2c1cccs1 | -4 | 3 | -7 | -1 | -1.4 | 3 |
| C=CCn1c(O)c(C(C)=NCCN2CCN(C(=S)NC)CC2)c(=O)[nH]c1=O | -19 | -11 | -15 | -14 | 0.2 | -2 |
| COc1ccc(-n2c(O)c(C(C)=NCc3ccc4c(c3)OCO4)c(=O)[nH]c2=O)cc1 | 1 | 2 | 6 | -3 | -0.6 | 29 |
